# Source: PubChem
# Sfp inh: Sfp phosphopantetheinyl transferase inhibition. Biochemical Sfp PPTase activity, qHTS. Potency, µM, inactives show max response, negative = inhibition, usual class: inhibitors. 3.5% of 310,000 active. AID 1490; active = well fitted inhibition curve with a large enough effect; inconclusive = small, poorly fitted or top-dose-only effect, or another doubt; inactive = no such curve, though single readings can be large or run the other way;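 note: the enzyme is Sfp with the accession as filed and its product quenches rhodamine fluorescence; potency is the fitted concentration of half-maximal effect; 0% = enzyme reaction without inhibitor and -100% = no enzyme wells; top concentration of the series not given in the record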
#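 With Hepes-Na pH 7.6 buffer containing 10 mM MgCl2, Sfp (15 nM) modified BHQ-2-YbbR (12.5 uM) using rhodamine-CoA (5 uM). Two reads 30 minutes apart at 525/598 nm yielded each well's rate.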
# Menin-MLL FL inh: inhibitors of human menin-MLL interaction, wild-type MLL peptide | Fluorescence polarization, fluorescein-MLL peptide displacement from menin | AID 1766 | FP activity change, % at 61.4 µM | 290,000 tested, under 10 active; inconclusive = falling polarisation curve, or a change in total fluorescence; inactive = total fluorescence flat and polarisation flat or rising; no compound was filed as active; the % refers to the polarisation; negative = inhibition;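 note: % of control where 0% means no effect; inhibitors lower the polarisation; unlabelled MLL peptide was the positive control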
# gsp agonist: gsp mutant agonism | AID 624287 | gsp mutant cells, cAMP HTRF, 30 min; control for the full effect not named in the record | Potency, µM (top dose mostly 76.9 µM), for the others: top-dose activation (cAMP increase), actives largely listed as activators | 0.13% of 340,000 active; active = well fitted activation curve with a large enough effect; inconclusive = small, poorly fitted or top-dose-only effect, or another doubt; inactive = no such curve, though single readings can be large or run the other way; cell line not stated here;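 note: phosphodiesterase inhibitor Ro 20-1724 added with compounds to block cAMP breakdown; potency is the fitted concentration of half-maximal effect; nearly all actives have a fitted effect of over 60% in size; about a fifth of the inactives were tested at one dose only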
#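 Cells stably selected in G418 were plated at 2000/well, grown 16-24 hr, then given compounds in DMSO with the PDE inhibitor […] (300 uM solution added) for 30 min at 37C; cAMP was read by HTRF.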
# ClpP mod: qHTS Assay for Activators of ClpP | 1.9% of 340,000 active | AID 651965, 2013 | Potency, µM (highest dose often 57.5 µM), for inactives: at the highest dose activity change, negative = active | purified B. subtilis ClpP, FRET peptide cleavage, 20 min | ATP-dependent Clp protease proteolytic subunit (Bacillus subtilis (strain 168)), P80244; active = well fitted falling curve with a large enough effect; inconclusive = small, poorly fitted or top-dose-only effect; inactive = no such curve, though single readings can be large or run the other way; note: potency is the fitted concentration of half-maximal effect; the source files actives as falling curves though it sought activators and does not explain the sign; nearly all actives have a fitted effect of over 65% in size; many hits overshoot -100%
# Target sequence (P80244 whole entry, looked up): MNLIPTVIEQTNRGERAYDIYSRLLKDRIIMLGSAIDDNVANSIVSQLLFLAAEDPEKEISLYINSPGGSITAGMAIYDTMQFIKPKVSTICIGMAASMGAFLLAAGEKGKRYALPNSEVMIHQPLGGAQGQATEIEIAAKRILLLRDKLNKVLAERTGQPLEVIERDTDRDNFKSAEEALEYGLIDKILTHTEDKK
#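 FRET quenching reversal measured ClpP activation: 10 microg/mL B. subtilis ClpP at pH 8 with the FRET-FV decapeptide, read at 430 nm after 320 nm excitation. The 20-min minus 0-min signal was scaled between DMSO/no-enzyme wells and ADEP (5.8 microM final).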
# D2 ag: activates the human D2 dopamine receptor; P14416; DiscoveRx PathHunter D2 beta-arrestin, luminescence, 90 min; 100% = 57 uM dopamine signal; activation, % (concentration not given with the values); 0.084% of 360,000 active; in the data active = activation above about 40%; inconclusive = about 15% to 40%; inactive = below about 15%; note: compound concentration not given in the record; the text of the record calls up to 30% inactive
# Target sequence (P14416 whole entry, looked up): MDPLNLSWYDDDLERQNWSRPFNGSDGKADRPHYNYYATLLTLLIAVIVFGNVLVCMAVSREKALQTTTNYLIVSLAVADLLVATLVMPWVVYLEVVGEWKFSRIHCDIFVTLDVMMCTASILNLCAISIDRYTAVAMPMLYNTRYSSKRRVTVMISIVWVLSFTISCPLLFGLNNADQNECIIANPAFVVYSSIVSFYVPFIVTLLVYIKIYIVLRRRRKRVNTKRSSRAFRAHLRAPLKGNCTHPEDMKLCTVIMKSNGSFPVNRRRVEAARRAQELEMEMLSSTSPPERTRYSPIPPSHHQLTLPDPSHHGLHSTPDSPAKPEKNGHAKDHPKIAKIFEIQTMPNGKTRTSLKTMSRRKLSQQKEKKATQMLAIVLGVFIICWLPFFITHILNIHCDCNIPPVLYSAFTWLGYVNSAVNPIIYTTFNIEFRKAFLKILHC
#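 Agonist mode: compounds alone added to overnight-plated D2 PathHunter cells for 90 min at 37 C, with 57 uM final dopamine (EC100) defining full response. Beta-arrestin recruitment detected by chemiluminescent reagent, read after 1 h at ambient temperature.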
# PINK1 modulator: modulators of PINK1 expression; PINK1 immunofluorescence, high-content cytometry, 24 h; Potency, µM (series often up to 76.6 µM), without a hit: at the highest dose activation (PINK1 increase), hits mostly activators; 0.2% of 410,000 active; AID 624263; active = well fitted activation curve with a large enough effect; inconclusive = small, poorly fitted or top-dose-only effect; inactive = flat fitted curve, though single readings scatter; cell line not stated here;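 note: potency is the fitted concentration of half-maximal effect; % of control where 0% means no effect; nearly all actives have a fitted effect of over 65% in size; a mitochondrial uncoupler was the plate control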
#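 Cells are seeded, rested 12 hours, then given compound at five concentrations or DMSO for 24 hours. After fixation, blocking and antibody staining, PINK1 amount and mitochondrial localization are scored; CCCP serves as control.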
# gsp antag: antagonists of gsp mutant (McCune-Albright syndrome). gsp-mutant cells, cAMP HTRF, 30 min; control for the full effect not named in the record. Potency, µM (highest dose often 76.9 µM), for inactives: at the top dose activity change, negative = inhibition, usual class: inhibitors. 0.4% of 340,000 active. AID 624288; active = falling curve of any shape with a large fitted effect; inconclusive = falling curve, mostly with a smaller effect; inactive = flat or rising curve; cell line not stated here;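 note: intracellular cAMP measured with PDE inhibitor Ro 20-1724 present during compound exposure; potency is the fitted concentration of half-maximal effect; % is set by controls: 0 for no effect and ±100 for the full control effect; nearly all actives have a fitted effect of over 65% in size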
#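 G418-selected cells were plated in DMEM/10% FBS for 16-24 h at 37C, then treated with compounds plus the PDE inhibitor […] (300 uM solution added) for 30 min at 37C. Intracellular cAMP was measured by HTRF after 30 min lysis at room temperature.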
# * marks the source's active call; other numbers are inactive results; ? = inconclusive; . = no result given; & = joins results of further samples; [ ] = another dose, or the depositor's remark. Compounds were not picked by outcome, and some 5.1% of all compounds hit somewhere here.
SMILES,Sfp inh,Menin-MLL FL inh,gsp agonist,ClpP mod,D2 ag,PINK1 modulator,gsp antag
CC(=O)n1cc([C@@H]2C=C(C(=O)N3CCN(Cc4ccccc4)CC3)O[C@H](OCc3ccc(CO)cc3)C2)c2ccccc21,-9%,?,.,-1.4%,4.8,-0.2%,-17%
Cc1cc(C)c(C(O)c2ncc(-c3cccc4ccccc34)[nH]2)c(C)c1 (centres undefined),.,.,.,4.6%,-4.8,?,.
COc1ccc(NC(=O)C2(C)CCN2C(=O)CC2CCCC2)cc1OC (centres undefined),.,.,.,-2.2%,6.1,1.3%,.
CC1CCN(C(=O)CCNC(=O)c2ccccc2)CC1,20%,1.3,4%[15.4 µM],.,-5.0,0.6%,7%
CC12CC3CC(C)(C1)CC(C(=O)NCc1ccco1)(C3)C2,10%,-7.8,-7%[15.4 µM],.,8.9,-0.4%,6%
O=C(NCc1nnnn1-c1cccc(F)c1)c1ccc(S(=O)(=O)N2CCOCC2)cc1,.,.,-4%,-1.2%,-2.6,-5.4%,-15%
COCCCN(C(=O)c1ccccc1)c1nc(-c2ccc(OC)cc2)cs1,-8%,0.8,18%,-4.1%,-4.4,0.9%,-8%
COc1ccccc1C(=O)Nc1nnc(S(=O)(=O)N2CCC(C)CC2)s1,5%,-6.9,5%,-6.0%,1.4,2.0%,-8%
N#Cc1sc2nc(C3CC3)cc(-c3ccccc3)c2c1N,-15%,-2.2,-35%[inhibitor],-18%,-2.7,6.8%,-6%
CCOC(=O)c1c(C)[nH]c(C)c1S(=O)(=O)N(C)CC(=O)NCc1ccc(F)cc1,12%,3.6,11%,1.2%,0.5,0.9%,10%
CCOC(=O)[C@@H]1[C@H]2COc3ccccc3[C@H]2N2C(=O)N(c3ccc(OC)cc3)C(=O)[C@]12C,13%,-0.9,.,-3.1%,-2.0,0.8%,-2%
Cc1ccc(-c2nc(CS(=O)CC(=O)NCc3ccccc3)c(C)o2)cc1 (centres undefined),-10%,-0.5,1%,-21%,-5.3,0.1%,2%
CCCNc1c(NS(=O)(=O)c2cccc(C#N)c2)c(=O)oc2ccccc12,-6%,4.9,?,-0.6%,-2.9,4.3%,2%
Nn1c(SCC(=O)Nc2ccccc2Br)nnc1-c1ccco1,24%,-1.1,-82%[inhibitor],-1.6%,-5.7,-0.5%,4%
COc1c(O)ccc2cnn(-c3ccccc3C)c(=O)c12,20%,-0.1,3%,-1.3%,-4.9,-1.9%,6%
CC(NC(=O)C(Cc1ccccc1)NC(=O)c1ccccc1)C(=O)O (centres undefined),17%,0.2,-35%[inhibitor],-1.1%,-3.3,4.9%[38.3 µM],15%
O=C(NCCOc1ccc(Cl)cc1)c1ccc2ccccc2n1,-9%,3.6,10%[15.4 µM],-1.9%,-1.4,2.0%,-2%
CCOC(=O)N1CCC(Nc2c([N+](=O)[O-])cc(C(=O)O)cc2[N+](=O)[O-])CC1,-6%,-2.8,?,0.2%,1.9,0.7%,3%
O=C(c1ccccc1)N1CCN(S(=O)(=O)N2CCCCC2)CC1,15%,3.3,12%,-0.4%,3.6,1.8%,2%
C1CCC(Nc2nnnn2C2CCCCC2)CC1,-2%,1.8,4%,0.1%,-3.7,-0.8%,-1%
CCCC(C)C(=O)Nc1ccc(S(=O)(=O)N2CCCC2)cc1 (centres undefined),3%,-3.9,1%[15.4 µM],?,-4.5,-0.5%,13%
Cc1ccc(NC(=O)C2=NNC(=O)CC2)cc1S(=O)(=O)Nc1ccc(SC(F)F)cc1,.,.,-1%[15.4 µM],-0.2%,-1.6,0.6%,-15%
COc1ccc(N(CC(=O)NCc2ccco2)S(C)(=O)=O)cc1Cl,-14%,-1.0,?,-0.2%,-1.7,3.9%,-3%
CC(C)CNC(=O)c1ccccc1NC(=O)c1ccccc1N(C)S(=O)(=O)c1ccccc1,3%,-2.2,-8%,1.1%,-1.5,0.5%,-12%
COc1ccc(N2CCN(C(=O)c3[nH]c4ccc(OC)cc4c3C)CC2)cc1,-6%,5.2,1%,.,-0.9,2.0%,-17%
NS(=O)(=O)c1ccc(F)c(C(=O)O)c1,-4%,0.5,-28%,-0.3%,-1.8,0.5%,10%
COc1ccc(CCNC(=O)CCn2c(=O)c3cccn3c3ccc(F)cc32)c(OC)c1OC,19%,.,29%,-8.6%&-26%,2.2,0.6%&0.7%,-10%
CC(C)CCNc1nc2c(cc1C#N)COC(C)(C)C2,-1%,-0.1,-2%,165%,-4.7,-1.3%,6%
CCCCCCS(=O)[C@H]1CS(=O)(=O)C[C@@H]1S(=O)CCCCCC (some centres undefined),-2%,0.4,-39%[inhibitor],-0.6%,-1.5,5.9%,1%[15.4 µM]
COC(=O)C1CN(C(=O)c2cccc(OC(F)F)c2)c2ccccc2O1 (centres undefined),13%,0.0,16%[15.4 µM],.,-2.0,1.2%,-27%

# A few values from the results shown:
# `NS(=O)(=O)c1ccc(F)c(C(=O)O)c1` – ClpP mod: -0.3%
# `COc1ccc(CCNC(=O)CCn2c(=O)c3cccn3c3ccc(F)cc32)c(OC)c1OC` – D2 ag: 2.2

# Next part.
SMILES,Sfp inh,Menin-MLL FL inh,gsp agonist,ClpP mod,D2 ag,PINK1 modulator,gsp antag
O=C(CC1C(=O)N(c2ccc(F)cc2)C(=O)N1Cc1ccccn1)Nc1ccccc1 (centres undefined),18%,-1.4,-31%[inhibitor],-1.8%,-1.6,1.9%[38.3 µM],-9%
Cn1c(CC(=O)NNC(=O)c2cccnc2)nc2ccccc21,.,.,4%,-2.8%,0.5,-1.7%,4%
Cc1cc(C)c2c(CN3CCC(C)CC3)cc(=O)oc2c1C,-27%,-0.2,?,-0.1%,-5.3,12%,4%
CC1(C)NC(=O)N(CC(=O)NNC(=O)c2ccccc2F)C1=O,.,.,-25%,0.8%,0.0,3.2%,6%
CCOc1ccc(Nc2nc(NCC3CCCO3)c3ccccc3n2)cc1 (centres undefined),35µM*,-7.3,-4%,.,-4.0,-1.1%,-11%
CN(C(=O)C1CCCO1)C1CCS(=O)(=O)C1 (centres undefined),.,.,6%[15.4 µM],.,-2.8,2.4%,8%
CC(C)(C)NC(=O)Cn1nnnc1-c1nonc1N,11%,4.4,7%,2.5%,-1.7,-2.0%,6%
O=C(O)CSc1c2c(nc3cc(C(=O)NCCN4CCOCC4)ccc13)CCC2,89µM*,?,-17%[15.4 µM],.,-5.0,-0.4%,11%
COC(=O)c1sc(N2CCCCC2)c(C#N)c1N,-4%,1.3,-2%[15.4 µM],0.6%,-0.6,0.1%,-16%
Cc1scc(C(=O)N2CCN(S(C)(=O)=O)CC2)c1-c1ccccc1,7%,0.4,-16%,-0.4%,-2.3,-2.6%[38.3 µM],-5%
CCOC(=O)N1CCN(C(=O)CN2C(=O)COc3ccc(S(=O)(=O)N4CCOCC4)cc32)CC1,11%,.,20%,0.9%,0.8,1.7%,-23%
CC(Sc1ccc(Cl)cc1)C(=O)Nc1ccc(S(=O)(=O)N2CCOCC2)cc1 (centres undefined),2%,-0.7,1%,0.4%,-2.9,-0.9%,-7%
O=C1C2CCCN2C(=O)N1CCCCN1CCN(c2cccc(Cl)c2)CC1 (centres undefined),11%,2.2,-16%,1.0%,1.5,-1.7%,14%
CCN(CC)c1ccc(/C=N/NC(=S)NCc2ccccc2)c(O)c1,14%,.,-38%,?,2.0,22%,0%
CN(C)c1ccccc1C(=O)c1ccccc1N(C)C,-29%,-2.9,-6%,-3.6%,-2.8,-0.9%,8%
Nc1nc(N(Cc2ccccc2)Cc2ccccc2)nc(C(F)(F)F)n1,.,.,9%,-4.9%,-3.9,4.9%,-3%
CCOC(=O)CSc1nnc2c(n1)C1(C)CCC2C1(C)C (centres undefined),-8%,-0.6,36%,-0.3%,-2.6,0.3%,-11%
O=C(COc1ccc(Br)cc1)Nc1ccc2c(c1)C(=O)NC2=O,-15%,6.7,6%[15.4 µM],.,-3.5,1.1%,-13%
Cc1cc(C)c(NC(=O)CSCc2c(C)noc2C)c(C)c1,.,.,1%,20%,-3.2,-0.1%,11%
Cc1ccccc1-c1nc(CN2CCC(C(=O)N3CCC(C(N)=O)CC3)CC2)c(C)o1,17%,4.9,-5%,-3.0%,-6.0,0.8%,8%
O=C(Nc1cccc(F)c1)NC1CCCc2ccccc21 (centres undefined),11%,0.1,-1%[15.4 µM],-1.6%,-0.1,8.6%,6%
CCN(c1ccccc1)S(=O)(=O)c1cc(C(=O)NCc2ccccn2)ccc1C,.,.,-1%[15.4 µM],7.2%,1.5,-0.9%,-16%
CC1=CC(C)(C)Nc2ccc(OC(=O)CN3C(=O)c4ccccc4C3=O)cc21,4%,3.1,-40%[inhibitor],25µM*,15,2.6%,-6%
CC1COc2ccccc2N1C(=O)c1cccnc1Cl (centres undefined),-7%,1.0,?,.,3.1,-0.8%,2%
CCc1ccc(C(O)(C(C)C)C(CN2CCOCC2)c2ccccc2)cc1 (centres undefined),-15%,-0.3,0%,-0.2%,-2.2,?,-9%
COC(=O)c1cc(S(=O)(=O)NCC(C)c2ccccc2)cn1C (centres undefined),-7%,-6.6,-25%,-0.9%,-1.2,-1.1%,1%
Cc1cccc(OCC(=O)Nc2ccccc2C(F)(F)F)c1,-5%,3.7,-48%,-2.8%,-2.1,0.5%,14%
Cc1ccccc1NC(=O)c1ccc(S(=O)(=O)N2CCCC2)cc1,11%,1.2,-14%,.,-0.6,2.2%,5%
CCCCn1c(N)c(N(CCOC)C(=O)COC(=O)COc2c(C)cc(C)cc2C)c(=O)[nH]c1=O,.,.,-4%,0.6%,-5.9,-0.8%,12%
C=CCn1cc(Cl)cc(C(=O)Nc2ccccc2)c1=O,4%,2.3,11%[15.4 µM],.,0.1,2.5%,-8%
ClCCN1C2=NCCCN2c2ccccc21,2%,3.2,1%,-0.1%,-4.8,-0.8%,13%
FC(F)(F)c1ccccc1NC(=S)NN=C1CCCCCC1,-71%,-1.6,-37%[inhibitor],.,3.3,9.6%,16%
